Screening results (PubChem BioAssay)
AID923 – qHTS Assay for Allosteric/Competitive Inhibitors of Caspase-1: Spectroscopic Profiling in AFC Spectral Region. Potency, µM (series often up to 57.5 µM), for the others: at the highest dose fluorescence increase, most hits filed as activators. compound fluorescence, AFC spectral region (405/520 nm); almost no hit is shown here. 75,000 tested, 1.1% active. AID 923, 2007; active = well fitted activation curve with a large enough effect; inconclusive = small, poorly fitted or top-dose-only effect;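 note: potency is the fitted concentration of half-maximal effect; 0% is about no effect; scaled to a free AFC standard on each plate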
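Compound autofluorescence profiled at 405 nm ex/520 nm em during kinetic caspase 1 run (50 nM enzyme, 5 uM Ac-WEHD-AFC, HEPES pH 7.5, 10 mM DTT). Titration up to 57 uM; baseline from regression intercept, normalized to AFC standard curve.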
A647 fluor – compound fluoresces in the A647 spectral region. Compound fluorescence, A647 channel (570/671 nm), Tris buffer. AID 592. max dye-equivalent concentration, M. 59,000 tested, under 10 active; active means above 1 µM dye equivalent; inconclusive means 0.1 to 1 µM; inactive means 0.1 µM or less;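 note: values scaled relative to a standard on each plate; highest value over a series up to 38 µM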
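Spectral profiling of library compounds in pH 8.0 Tris: 15 min room-temperature incubation, single ex/em pair (570/671 nm), response normalized to Alexa 647 equivalents.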
A488 autofl – compound autofluorescence in A488 spectral region; compound autofluorescence, A488 spectral region, dye equivalency; stronger effect = higher value; max dye equivalency, M; 59,000 tested, 0.1% active; AID 591; active = above 10 nM dye equivalent; inconclusive = 1 to 10 nM; inactive = 1 nM or less; about half of its hits are not listed in these tables;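 note: highest value over a series up to 38 µM; compound alone in buffer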
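Readout is A488 dye-equivalent concentration, calibrated by a per-plate six-point Alexa 488 series. Compounds in 100 mM Tris buffer pH 8.0 were incubated 15 min at room temperature. Plates were imaged using 480 nm excitation/540 nm emission filters.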
TSHR ag – activates the human thyroid stimulating hormone receptor. P16473. HEK293-CNG-TSHR cells (CNG channel as cAMP sensor), membrane potential dye, cAMP. Potency, µM (highest dose often 57.1 µM), for the others: at the top dose activation, actives largely listed as activators. 73,000 tested, 0.48% active; active = well fitted activation curve of enough size with the parental cells flat; inconclusive = any curve in the parental cells; inactive = parental cells flat and receptor cells flat or falling; note: potency is the fitted concentration of half-maximal effect; % of control where 0% means no effect; weak receptor curves with flat parental cells got no call and are not listed
Target sequence (P16473 whole entry, looked up): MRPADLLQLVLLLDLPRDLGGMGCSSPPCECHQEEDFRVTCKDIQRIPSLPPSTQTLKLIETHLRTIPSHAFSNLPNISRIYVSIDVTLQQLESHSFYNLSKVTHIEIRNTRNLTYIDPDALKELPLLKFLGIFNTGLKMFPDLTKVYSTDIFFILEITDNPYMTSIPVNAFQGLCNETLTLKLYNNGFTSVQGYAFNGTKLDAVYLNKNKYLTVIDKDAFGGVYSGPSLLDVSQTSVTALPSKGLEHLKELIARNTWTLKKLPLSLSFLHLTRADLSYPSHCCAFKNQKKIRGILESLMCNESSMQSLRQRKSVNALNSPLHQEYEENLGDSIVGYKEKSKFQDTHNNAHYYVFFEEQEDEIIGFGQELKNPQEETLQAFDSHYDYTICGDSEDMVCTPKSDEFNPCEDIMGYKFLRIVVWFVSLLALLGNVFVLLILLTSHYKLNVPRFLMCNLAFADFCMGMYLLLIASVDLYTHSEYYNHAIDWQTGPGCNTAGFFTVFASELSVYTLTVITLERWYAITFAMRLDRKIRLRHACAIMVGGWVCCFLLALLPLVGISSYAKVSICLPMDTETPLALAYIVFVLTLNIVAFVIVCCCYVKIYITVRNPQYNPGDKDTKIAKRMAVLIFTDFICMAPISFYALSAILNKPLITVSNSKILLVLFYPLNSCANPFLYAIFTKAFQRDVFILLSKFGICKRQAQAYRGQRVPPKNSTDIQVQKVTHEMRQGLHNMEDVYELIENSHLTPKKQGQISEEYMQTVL
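cAMP rise detected as CNG-channel membrane depolarization by fluorescent dye (emission 590 nm), 30 min after compound, following 60 min dye loading containing 100 uM RO 20-1724 at room temperature. Cells: TSHR/CNG HEK 293, with parental CNG HEK 293 as control.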
Resorufin fluor – compound fluoresces in the resorufin spectral region; Compound fluorescence, resorufin region 547/598 nm, buffer; stronger effect = higher value; max dye-equivalent concentration, M; 59,000 tested, 0.04% active; active = above 10 nM dye equivalent; inconclusive = 1 to 10 nM; inactive = 1 nM or less; a few of its hits are not listed in these tables; note: highest value over a series up to 38 µM
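Intrinsic fluorescence profiled in the resorufin window (ex 547 nm, em 598 nm) after 15 min at room temperature in pH 8.0 Tris buffer (100 mM); responses normalized against a six-point resorufin standard series as dye-equivalent concentration.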
Active calls of the source: *; i = inactive; ? = inconclusive; / = not tested or not shown; & = joins results of further samples; [ ] = remark or other dose. An excerpt, so the mix of outcomes need not match the whole.

SMILES	AID923	A647 fluor	A488 autofl	TSHR ag	Resorufin fluor
O=S(=O)(c1ccc(S(=O)(=O)n2cnc3ccccc32)cc1)N1CCCCCC1	-0.1%	1.5e-08	i	1%	i
Cn1c2c(c(=O)n(C)c1=O)C(NC(=O)C(C)(C)C)(C(F)(F)F)C(=O)N2 (stereo not drawn)	/	1e-09	i	/	i
COc1ccc(OC)c(Nc2cc(C)nc3ccccc23)c1	-1.2%	2.7e-08	i	?	i
CCOC(=O)N1CCN(Cc2nc3c(c(=O)[nH]c(=O)n3C)n2Cc2ccccc2C)CC1	-0.3%	1.4e-09	i	/	i
CNC(=O)Cn1ncc2c(C)n(Cc3ccc(C)cc3)c(C)c2c1=O	4.6%	/	/	4%	/
COc1ccccc1N(C)S(=O)(=O)c1ccc(C(=O)OCC(=O)NCc2ccco2)cc1	-1.3%	2.6e-08	i	11%	i
O=c1c2ccccc2sc2nc(C3CCCCC3)n(Cc3ccco3)c(=O)c12	0.0%	1e-09	i	?	i
CC(C)(C)c1cc(CN(CCO)CCO)cc(C(C)(C)C)c1O	-0.1%	2.9e-08	i	15%	i
O=C(c1cc2c(s1)CCCC2)N1CCN(C(=O)C2CCCO2)CC1 (stereo not drawn)	0.0%	3.9e-09	i	-2%	i
C#CCCCO/N=C1/C[C@@H](O)[C@@H](O)[C@@H]2[C@@H]3C(=O)N(C(C)(C)C)C(=O)[C@H]3CC[C@H]12	6.4%[11.5 µM]	/	/	4%[11.4 µM]	/
CCOC(=O)C(N)CSC1CC(=O)N(c2ccc(C(=O)OC)cc2)C1=O (stereo not drawn)	3.0%	/	/	-4%	/
COc1ccc(C2Nc3ccccc3C(=O)N2Cc2ccco2)cc1COc1ccc(NC(C)=O)cc1 (stereo not drawn)	4.1%	3.6e-08	i	0.63µM*	i
O=C(Nc1nc(-c2ccc(Cl)s2)cs1)c1cccs1	1.1%	4.2e-08	i	?	i
O=C(O)CCSc1nnc(-c2ccncc2)n1-c1ccccc1	1.7%	7.2e-09	i	-4%	i
COc1ccc(Oc2ncc3ncc(=O)n(Cc4cccc(OC)c4)c3n2)cc1	-0.2%	1.6e-08	i	?	i
Cc1cc(C)nc(Nc2n[nH]c(COc3ccc(Cl)cc3)n2)n1	-0.3%	8.3e-09	i	24%	i
O=C(c1csnn1)N1CCC2(CCCN(Cc3cc(C(F)(F)F)cc(C(F)(F)F)c3)C2)CC1	2.9%	7.5e-09	i	/	i
N#Cc1cccc(NC(=O)N2CCC3(CC2)CCN(C(=O)c2cnccn2)CC3)c1	4.7%	1.8e-08	i	2%	i
Cc1ccc(OCC(O)CNS(=O)(=O)c2ccccc2C(=O)O)cc1 (stereo not drawn)	/	1e-09	i	/	i
CCOC(=O)c1nnn(-c2nonc2N)c1CNc1ccccc1	2.5%	1e-09	i	10%[11.4 µM]	i
CC1(C)C(C#N)=C(N)OC2=C1C(=O)CCC2	0.5%	6.2e-09	i	5%	i
Cc1cc(=O)n2[nH]c(-c3ccc(F)cc3)cc2n1	3.9%	8.2e-09	i	-2%	i
CCOc1ccc2[nH]c(=O)c(C(c3nnnn3Cc3ccco3)N3CCC(C)CC3)cc2c1 (stereo not drawn)	10%	7.1e-09	i	?	i
Cc1cccc(Cn2c(Sc3nc(C)cs3)nc3c2c(=O)[nH]c(=O)n3C)c1	-2.0%	4.3e-08	i	18%	i
CCc1nnc(NC(=O)c2ccc(COc3ccc(C)cc3)o2)s1	0.0%	2.5e-08	i	-12%	i
CCOc1ccc(CCNC(=O)CN(C)S(=O)(=O)c2ccc3c(c2)CCC(=O)N3)cc1OCC	0.8%	4e-08	i	1%[11.4 µM]	i
CCN(CC)C(=O)C1CCCN(c2ncnc3c2cnn3-c2cccc(C)c2)C1 (stereo not drawn)	-0.4%	8.9e-09	i	8%	i
CO[C@H]1COC(=O)C/C=C\[C@@H](C)COC(=O)[C@@H](CCSC)NC(=O)C/C=C\[C@@H]1C	-0.5%&-1.9%[11.5 µM]	/	/	-1%&-5%[11.4 µM]	/
CCOc1cc(S(=O)(=O)NCCc2ccccc2C)c(OCC)cc1-n1cnnn1	1.3%	3.1e-08	i	15%	i
Clc1ccc(Br)cc1-c1nc(-c2cccnc2)no1	0.1%	5.1e-08	i	8%	i
O=C(Oc1cccnc1)c1ccc(Cl)cc1	1.5%	1.4e-09	i	3%	i
NC(=O)c1sc(=S)n(-c2ccc(Br)cc2)c1N	0.6%	/	/	-24%	/
O=C(CN(Cc1ccc2c(c1)OCO2)C(=O)CNS(=O)(=O)c1ccccc1)NCC1CCCO1 (stereo not drawn)	-1.4%	1.1e-08	i	5%	i
COC(=O)/C=c1/s/c(=C(/C#N)C(=O)N2CCOCC2)n(-c2ccccc2)c1=O	/	5e-09	i	/	i
CCOC(=O)N1CCN(C(=O)CCCn2c(=S)[nH]c3ccccc3c2=O)CC1	1.2%	4.8e-09	i	3%	i
Cc1cc(S(=O)(=O)NCc2ccco2)c(C)s1	0.9%	1e-08	i	18%[11.4 µM]	i

The last 3 compounds of the part above are carried over, then new ones follow.
SMILES	AID923	A647 fluor	A488 autofl	TSHR ag	Resorufin fluor
COC(=O)/C=c1/s/c(=C(/C#N)C(=O)N2CCOCC2)n(-c2ccccc2)c1=O	/	5e-09	i	/	i
CCOC(=O)N1CCN(C(=O)CCCn2c(=S)[nH]c3ccccc3c2=O)CC1	1.2%	4.8e-09	i	3%	i
Cc1cc(S(=O)(=O)NCc2ccco2)c(C)s1	0.9%	1e-08	i	18%[11.4 µM]	i
Nc1nc(SCC(=O)N2CCc3ccccc3C2)[nH]c(=O)c1-c1ccccc1	1.0%	1e-09	i	8%	i
CCOC(=O)N1CCC(N2CC34C=CC(O3)C(C(=O)Nc3ccc(C(C)C)cc3)C4C2=O)CC1 (stereo not drawn)	2.0%	/	/	1%	/
CCC1(C)OC(=O)N2CCc3c(C)[nH]c4c(C)ccc(c34)C21C (stereo not drawn)	-0.4%	/	/	2%	/
O=C(CSc1nnc(-c2cccnc2)o1)OC1CCCCC1	-0.4%	9.6e-09	i	-7%	i
COC(=O)c1ccc(COc2nc(C)cc(C)c2C#N)o1	-0.5%	1e-09	i	/	i
CO[C@@H]1COC(=O)[C@@H](CCSC)NC(=O)C/C=C\[C@@H](C)COC(=O)[C@H](C)NC(=O)C/C=C\[C@H]1C	0.0%[11.5 µM]	/	/	-6%[11.4 µM]	/
O=C(Nc1scc(-c2ccccc2)c1C(=O)O)c1ccco1	-1.3%	8.8e-09	i	?	i
O=c1[nH]c(-c2ccccc2)c(-c2ccccc2)[nH]1	1.2%	9.3e-09	i	20%	i
N#Cc1nc(COc2ccccc2)oc1N1CCN(c2cccc(Cl)c2)CC1	-2.3%	1.9e-09	i	?	i
O=C(NCc1ccco1)c1scc2c1OCCO2	0.7%	3.1e-09	i	-3%	i
CC(C)n1c(Sc2nccn2C)nc2c1c(=O)n(C)c(=O)n2C	-0.2%	1e-09	i	0%	i
FC(F)(F)C(Cl)Br (stereo not drawn)	4.5%	/	/	-2%	/

Some of these compounds in order of number of heavy atoms, lowest first:
SMILES	AID923	A647 fluor	A488 autofl	TSHR ag	Resorufin fluor
CC(C)(C)c1cc(CN(CCO)CCO)cc(C(C)(C)C)c1O	-0.1%	2.9e-08	i	15%	i
Nc1nc(SCC(=O)N2CCc3ccccc3C2)[nH]c(=O)c1-c1ccccc1	1.0%	1e-09	i	8%	i
COc1ccccc1N(C)S(=O)(=O)c1ccc(C(=O)OCC(=O)NCc2ccco2)cc1	-1.3%	2.6e-08	i	11%	i

Other entries
SMILES	AID923	A647 fluor	A488 autofl	TSHR ag	Resorufin fluor
COc1ccc(CCNc2nc(=O)[nH]nc2C)cc1OC	0.2%	/	/	-1%	/
COCC(=O)N1CCC[C@@]2(CCN(c3ccncc3)C2)C1	1.8%	9.3e-09	i	4%	i
CCOC(=O)c1c(NC(=O)Cc2cccs2)sc(C(=O)N2CCCCC2)c1C	-1.7%	2.4e-08	i	?	i
O=C(c1cccc(F)c1)N1CCC2(CC1)CN(Cc1ccccc1)C2	3.2%	5.3e-09	i	?	i
C/C(=C1\SC(N2CCOCC2)=NC1=O)c1ccc(C)cc1	-1.7%	9.4e-09	i	29%	i
CCc1[nH]nc2c1C1(CCOC1C)C(C#N)=C(N)O2 (stereo not drawn)	0.0%	1e-09	i	5%	i
COc1ccc(C(=O)O)cc1S(=O)(=O)Nc1cccc(C(F)(F)F)c1	-1.5%	/	/	4%	/
COCC(=O)Nc1c(I)c(C(=O)NC[C@@H](O)CO)c(I)c(C(=O)N(C)C[C@@H](O)CO)c1I	-2.4%[25.7 µM]	1.6e-09	i	-3%[25.6 µM]	i
Nc1ccn([C@H]2CC[C@@H](CO)O2)c(=O)n1	-3.4%	/	/	-11%	/
O=C(O)c1cc(CN2CCOCC2)oc1-c1ccccc1	1.0%	4.6e-09	i	0%	i
CCN(CC)S(=O)(=O)c1cccc(-c2nnc(SCCCC(=O)c3ccc(F)cc3)o2)c1	0.5%	1e-09	i	?	i
COCCN(CCOC)Cc1c(C)[nH]c2c(C)c(C)ccc2c1=O	2.0%	/	/	-4%	/
COc1ccc(OC)c(S(=O)(=O)Nc2c(F)cccc2F)c1	0.4%	3.1e-08	i	5%	i
O=C(NC1=NCCS1)c1cccc(NC(=O)c2ccco2)c1	-1.0%	4.1e-08	i	-8%	i
C/C=C/COc1nc2c(c(=O)n(C)c(=O)n2C)n1C	-1.0%	1.2e-08	i	0%	i
O=C(Nc1nc2nc(-c3ccccc3)cc(-c3ccccc3)n2n1)c1ccco1	-1.4%	4e-08	i	/	i
CC(C)OC(=O)CC12CN3CC(CC(=O)OC(C)C)(CN(C1)C(=O)c1ccccc1C3=O)C2=O	3.2%	/	/	?	/
CCC(C)(C)n1nnnc1C(c1ccc(OC)c(OC)c1)N1CCN(c2ccc(OC)cc2)CC1 (stereo not drawn)	-0.3%	2.8e-08	i	8%	i
CCSc1nnc(-c2ccc(S(=O)(=O)NCc3cccs3)cc2)o1	-0.6%	6.1e-09	i	/	i
CN(C)c1ccc(C(=O)N2CC(=O)N(CCc3ccccc3)C(=O)C2)cc1	1.1%	1.9e-09	i	2%	i
CCC(c1nnnn1Cc1ccco1)N(Cc1ccccc1OC)Cc1cc2cc(C)ccc2[nH]c1=O (stereo not drawn)	7.7%	1e-09	i	?	i
CCOC(=O)CSc1nnc(CCc2nc3ccccc3[nH]2)n1C	-0.5%	1.2e-08	i	-14%	i
CCOCCCNC(=O)c1ccc2c(c1)OCO2	-0.7%	3.3e-09	i	1%	i
O=S(=O)(NCCc1csc(-c2ccccc2)n1)c1ccc2c(c1)OCCO2	-0.1%	2e-09	i	5%[11.4 µM]	i
CCOC(=O)c1c(CN2CCOCC2)n(-c2ccccc2)c2ccc(O)cc12	-0.8%	1.2e-08	i	/	i
CC(OC(=O)c1cc2sccc2n1C)C(=O)NCC1CCCO1 (stereo not drawn)	0.9%	1.1e-08	i	-1%	i
CCNS(=O)(=O)c1ccc(OCCNS(C)(=O)=O)cc1	-0.4%	1e-09	i	-5%	i
CCCc1cc(=O)[nH]c(Nc2cc(OC)ccc2OC)n1	0.7%	2.2e-08	i	-1%	i
Cc1nnc(Sc2nc3c(c(=O)n(C)c(=O)n3C)n2Cc2ccc(Cl)cc2)s1	1.0%	6.3e-09	i	7%	i
Cc1cc(C)n(-c2nc(SCC(=O)NCC3CCCO3)c3c4c(sc3n2)CCCC4)n1 (stereo not drawn)	2.2%	1.1e-09	i	?	i
COc1ccc(OC)c(NC(=O)c2ccc(NC(C)=O)cc2)c1	2.2%	/	/	1%	/
COc1cccc(NC(=O)CSc2nnc(Cn3c(=O)sc4ccccc43)n2C)c1	-0.4%	/	/	0%	/
CN(C(=O)CSc1nc(N)nn1-c1ccccc1)c1ccccc1	4.0%	/	/	?	/
Cn1c(=O)cc(OCC(=O)NCc2cccnc2)c2ccccc21	0.5%	1e-08	i	-1%[11.4 µM]	i
CCn1c(-c2ccsc2)nc2c1c(=O)[nH]c(=O)n2Cc1ccccc1	1.9%	3.4e-08	i	?	i
